NPYLR7 agonist = activates Aedes aegypti NPYLR7 receptor | activation, % at 10 µM | HEK293T NPYLR7/Galpha15, GCaMP6s calcium fluorescence | AID 1259423 | hit rate 0.15% among 270,000; in the data active = activation above about 40%;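 also: 0% = vehicle and 100% = reference agonist at the receptor; some compounds past the cut are filed as inactive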
NPYLR7 agonist max-min = second read-out of NPYLR7 agonist, no call of its own (marks repeat the call); activation, %; measured here: Max-Min RFU normalised activation; some inactives read as strong as hits;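 span of the calcium signal over five minutes; 0% = vehicle and 100% = native peptide agonist; compound fluorescence can raise it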
An asterisk follows results filed as active. Only part of the results is shown; the hit share may differ from the screen's.

Screening COC(=O)c1ccc(F)c(NC(=O)C=Cc2ccc3c(c2)OCCCO3)c1 returned NPYLR7 agonist 3 and NPYLR7 agonist max-min 0.
Screening CCCCN(CC(=O)N(Cc1cccn1C)CC(C)C)S(=O)(=O)c1ccc(C)cc1 returned NPYLR7 agonist -6 and NPYLR7 agonist max-min 2.
For C=C(C)COc1ccc(-c2ncncc2-c2ccccc2)c(O)c1 the results were NPYLR7 agonist 1 and NPYLR7 agonist max-min -2.
OCc1cc(-c2ncnc3sccc23)ccc1F was read as NPYLR7 agonist 0 and NPYLR7 agonist max-min 1.
Screening Cc1cc(C)c(NC(=O)/C=C/c2ccc(F)cc2)c(Cl)c1 returned NPYLR7 agonist 9 and NPYLR7 agonist max-min 3.
Screening CCOC(=O)N(C)c1c(CC)nc2c(OCc3ccc(OC)cc3)cccn12 returned NPYLR7 agonist 7 and NPYLR7 agonist max-min -5.
CCN(CC)P1(=O)C=C(c2ccccc2)SC(c2ccccc2)=C1 was read as NPYLR7 agonist -4 and NPYLR7 agonist max-min -8.
Screening CCOc1ccc(N2C(=O)CC(N3CCN(Cc4ccc5c(c4)OCO5)CC3)C2=O)cc1 (stereo not given) returned NPYLR7 agonist -13 and NPYLR7 agonist max-min -18.
Screening CNC(=O)Cn1c(CO)cnc1SCc1ccc(F)cc1 returned NPYLR7 agonist 14 and NPYLR7 agonist max-min 9.
COc1ccc(C(=O)NC2CCc3ccccc32)cc1OC1CCN(C(C)=O)CC1 (stereo not given) was read as NPYLR7 agonist 4 and NPYLR7 agonist max-min 3.
`CC(=O)Nc1ccc(S(=O)(=O)N2CCN(Cc3cc(=O)c(OCc4ccc(-c5ccccc5C#N)cc4)co3)CC2)cc1Cl` gave NPYLR7 agonist 2 and NPYLR7 agonist max-min 0.
COc1ccc(S(=O)(=O)N2CCC(Cc3ccc(-c4ccccc4)cc3)CC2)cc1OC was read as NPYLR7 agonist -1 and NPYLR7 agonist max-min -1.
CC(=O)N1N=C(c2cccs2)CC1c1ccc(Cl)o1 (stereo not given) was read as NPYLR7 agonist -6 and NPYLR7 agonist max-min -7.
`CN(Cc1coc(-c2ccccc2)n1)C1CCCN(CCc2ccccc2)C1` (stereo not given) gave NPYLR7 agonist 2 and NPYLR7 agonist max-min -2.
CN(CCCNC(=O)c1n[nH]c2ccccc12)CC(F)(F)F was read as NPYLR7 agonist 1 and NPYLR7 agonist max-min 6.
Screening Cc1cccn2c(CC(=O)N3CCC(c4ccccc4C(=O)O)C3)cnc12 (stereo not given) returned NPYLR7 agonist -4 and NPYLR7 agonist max-min -5.
Screening COc1ccc(C=Nc2c(-c3ccco3)nc3ccccn23)cc1OC returned NPYLR7 agonist -11 and NPYLR7 agonist max-min -15.
`COc1ccc(CC(=O)Nc2nnc(SCc3cc(OC)cc(OC)c3)s2)cc1` gave NPYLR7 agonist 5 and NPYLR7 agonist max-min 16.
Screening CC(C)c1noc(-c2ccc(NCC3OCCc4ccccc43)nc2)n1 (stereo not given) returned NPYLR7 agonist 15 and NPYLR7 agonist max-min 5.
Screening CC1(C)CC(=C2C(=O)c3ccccc3C2=O)C=C2c3ccccc3C(=O)C21 (stereo not given) returned NPYLR7 agonist 8 and NPYLR7 agonist max-min 14.
`CCn1ccc(CN2CC[C@@H](c3ccc(F)cc3)[C@H](O)C2)n1` gave NPYLR7 agonist 9 and NPYLR7 agonist max-min 5.
COc1ccc(-n2c(SCC(=O)N3CCOCC3)nc3c([nH]c4ccccc43)c2=O)cc1 was read as NPYLR7 agonist -1 and NPYLR7 agonist max-min 39.
COc1ccc(OC)c(-n2c(CNC(=O)c3ccco3)nnc2SCC(=O)Nc2nccs2)c1 was read as NPYLR7 agonist -7 and NPYLR7 agonist max-min -17.
For O=C(NCc1cccc(F)c1)C(C1CCCC1)N1CCN(C(=O)C2CCC2)CC1 (stereo not given) the results were NPYLR7 agonist -4 and NPYLR7 agonist max-min 1.
For CC(C)(C)CC(=O)Nn1cnc2c(cnn2-c2ccccc2)c1=O the results were NPYLR7 agonist 7 and NPYLR7 agonist max-min 6.
Screening COc1ccc(S(=O)(=O)n2nnc3cc(Cl)ccc32)cc1OC returned NPYLR7 agonist 15 and NPYLR7 agonist max-min 12.
Screening CC1CN(C(=O)/C=C/C(=O)Nc2ccc(F)cc2)CCO1 (stereo not given) returned NPYLR7 agonist -7 and NPYLR7 agonist max-min -8.
Screening CCOCCOC(=O)C1=C(C)NC2=C(C(=O)CC(c3ccccc3)C2)C1c1ccc(Cl)c(Cl)c1 (stereo not given) returned NPYLR7 agonist 1 and NPYLR7 agonist max-min 4.
Screening CCc1cccc2c1N(CC(=O)NC1CCN(C(C)=O)CC1)CCC2 returned NPYLR7 agonist -3 and NPYLR7 agonist max-min -4.
`CCCNC(=O)Cn1nc2c(c1NC(=O)c1ccc(Cl)cc1Cl)CSC2` gave NPYLR7 agonist 4 and NPYLR7 agonist max-min 4.
Screening CCOc1ccc(C(C)C)cc1S(=O)(=O)NCCOc1ccc(-c2ccccc2)nn1 returned NPYLR7 agonist -7 and NPYLR7 agonist max-min -14.
Nc1nc(SCC(=O)Nc2cccc([N+](=O)[O-])c2)sc1C(=O)Nc1nccs1 was read as NPYLR7 agonist 2 and NPYLR7 agonist max-min 2.
CN(Cc1ccccc1)C1CCCN(C(=O)CCc2cc(Cl)no2)C1 (stereo not given) was read as NPYLR7 agonist 8 and NPYLR7 agonist max-min 3.
Screening CC(C)C(=O)Nc1c(-c2cc(F)ccc2F)nc2ccccn12 returned NPYLR7 agonist -9 and NPYLR7 agonist max-min -5.
CCn1nc(NC(=O)c2ccc(CN3C[C@H]4CC[C@H]3C4)cc2)cc1C was read as NPYLR7 agonist 2 and NPYLR7 agonist max-min 16.
`Cc1c(S(=O)(=O)N2CCc3ccccc3C2)c(=O)n(C)c(=O)n1C` gave NPYLR7 agonist 1 and NPYLR7 agonist max-min 0.
For CN1CCN(C(=O)c2cc3n(n2)CCN(c2cc(-n4cccn4)ncn2)C3)CC1 the results were NPYLR7 agonist -6 and NPYLR7 agonist max-min -8.
For CN(CCN1CCN(c2ccccc2)CC1)C(=O)CC1CCCO1 (stereo not given) the results were NPYLR7 agonist 6 and NPYLR7 agonist max-min 4.
For CCc1cc(N2CCN(C(C)=O)CC2)nc(SCc2ccc(C(=O)NCc3ccccn3)cc2)n1 the results were NPYLR7 agonist 5 and NPYLR7 agonist max-min 21.
Screening COc1ccc(OC)c(C2CCN(C(=O)c3cn(CCN4CCCCC4)nn3)C2)c1 (stereo not given) returned NPYLR7 agonist 17 and NPYLR7 agonist max-min 7.
Screening COc1cccc(N2CCC(N3CC(c4ccncc4)C3)CC2)c1 returned NPYLR7 agonist 2 and NPYLR7 agonist max-min -1.
Screening CC(C)(C)Nc1c([N+](=O)[O-])c(=O)sc2ccccc12 returned NPYLR7 agonist -4 and NPYLR7 agonist max-min -6.
Screening Cc1ccc(OCc2cc(C(=O)N(C)CCc3ccccc3)no2)cc1C returned NPYLR7 agonist 22 and NPYLR7 agonist max-min 14.
Screening Cc1cc2c(SCC(=O)Nc3ccccc3[N+](=O)[O-])ncnc2s1 returned NPYLR7 agonist -10 and NPYLR7 agonist max-min -10.
Screening O=C(CSc1nnc(C2CC2)o1)NN1C(=O)NC2(CCCCC2)C1=O returned NPYLR7 agonist 1 and NPYLR7 agonist max-min 3.
CC(C)N=c1ccccn1C(=O)C1CC(=O)N(c2ccc3c(c2)OCCO3)C1 (stereo not given) was read as NPYLR7 agonist 4 and NPYLR7 agonist max-min 5.
Screening CCc1nccc(-c2nccn2-c2cccc(NS(=O)(=O)N(C)C)c2)n1 returned NPYLR7 agonist 19 and NPYLR7 agonist max-min 18.
For CCc1ccc(C(=O)c2c(N)c(C(=O)Nc3ccccc3C)c3ccccn23)cc1 the results were NPYLR7 agonist 1 and NPYLR7 agonist max-min -4.
Screening CCCc1cc(=O)[nH]c(-n2nc(C)cc2NC(=O)CCc2ccc(OC)cc2)n1 returned NPYLR7 agonist 8 and NPYLR7 agonist max-min 2.
For Cc1cccc2nc(-c3cccc(F)c3)c(NC(C)(C)C)n12 the results were NPYLR7 agonist 1 and NPYLR7 agonist max-min 8.
Screening CN(C)S(=O)(=O)c1ccc(-c2cn3cc(Cl)ccc3n2)cc1 returned NPYLR7 agonist -1 and NPYLR7 agonist max-min -1.
For Cc1oc(-c2cccs2)nc1-c1c(-c2ccccc2)ncn1CCCO the results were NPYLR7 agonist 10 and NPYLR7 agonist max-min 9.
For CCc1nnc(NC(=O)CCN2C[C@@H]3[C@@H]4CC[C@@H](C4)[C@@H]3C2)s1 the results were NPYLR7 agonist -6 and NPYLR7 agonist max-min -8.
For O=C(CC1OCCc2ccsc21)N1CCN(CCO)CC1 (stereo not given) the results were NPYLR7 agonist 2 and NPYLR7 agonist max-min 0.
`CCOC(=O)CCCNC(=O)N1CCN(c2ncccc2C(=O)NCc2cccs2)CC1` gave NPYLR7 agonist 4 and NPYLR7 agonist max-min 3.
`OCCC1CN(c2nc(-c3ccncc3)nc3c2CCNCC3)CCO1` (stereo not given) gave NPYLR7 agonist -2 and NPYLR7 agonist max-min -12.
Screening NCC(O)C1CCCCCCC1 (stereo not given) returned NPYLR7 agonist -2 and NPYLR7 agonist max-min -24.
For C=CCNS(=O)(=O)c1ccc(Cl)cc1 the results were NPYLR7 agonist -9 and NPYLR7 agonist max-min -13.
Screening CN(Cc1cc(-c2ccccc2)no1)Cc1ccnn1-c1ccccc1 returned NPYLR7 agonist 6 and NPYLR7 agonist max-min 5.
For CC1CCN(C2CC(=O)N(c3ccc(S(=O)(=O)N4CCOCC4)cc3)C2=O)CC1 (stereo not given) the results were NPYLR7 agonist 4 and NPYLR7 agonist max-min 3.

By substructure: the compounds so far containing an aryl methoxy group
Screening CCOC(=O)N(C)c1c(CC)nc2c(OCc3ccc(OC)cc3)cccn12 returned NPYLR7 agonist 7 and NPYLR7 agonist max-min -5.
COc1ccc(C(=O)NC2CCc3ccccc32)cc1OC1CCN(C(C)=O)CC1 (stereo not given) was read as NPYLR7 agonist 4 and NPYLR7 agonist max-min 3.
COc1ccc(S(=O)(=O)N2CCC(Cc3ccc(-c4ccccc4)cc3)CC2)cc1OC was read as NPYLR7 agonist -1 and NPYLR7 agonist max-min -1.
Screening COc1ccc(C=Nc2c(-c3ccco3)nc3ccccn23)cc1OC returned NPYLR7 agonist -11 and NPYLR7 agonist max-min -15.
`COc1ccc(CC(=O)Nc2nnc(SCc3cc(OC)cc(OC)c3)s2)cc1` gave NPYLR7 agonist 5 and NPYLR7 agonist max-min 16.
COc1ccc(-n2c(SCC(=O)N3CCOCC3)nc3c([nH]c4ccccc43)c2=O)cc1 was read as NPYLR7 agonist -1 and NPYLR7 agonist max-min 39.
COc1ccc(OC)c(-n2c(CNC(=O)c3ccco3)nnc2SCC(=O)Nc2nccs2)c1 was read as NPYLR7 agonist -7 and NPYLR7 agonist max-min -17.
Screening COc1ccc(S(=O)(=O)n2nnc3cc(Cl)ccc32)cc1OC returned NPYLR7 agonist 15 and NPYLR7 agonist max-min 12.
Screening COc1ccc(OC)c(C2CCN(C(=O)c3cn(CCN4CCCCC4)nn3)C2)c1 (stereo not given) returned NPYLR7 agonist 17 and NPYLR7 agonist max-min 7.
Screening COc1cccc(N2CCC(N3CC(c4ccncc4)C3)CC2)c1 returned NPYLR7 agonist 2 and NPYLR7 agonist max-min -1.
Screening CCCc1cc(=O)[nH]c(-n2nc(C)cc2NC(=O)CCc2ccc(OC)cc2)n1 returned NPYLR7 agonist 8 and NPYLR7 agonist max-min 2.

(listing goes on)
CCS(=O)(=O)N1CCCC(COCc2ccccc2)C1 (stereo not given) was read as NPYLR7 agonist -2 and NPYLR7 agonist max-min -6.
Screening CCOC(=O)Cn1c(=NC(=O)c2ccn(C)n2)sc2cc(S(C)(=O)=O)ccc21 returned NPYLR7 agonist 1 and NPYLR7 agonist max-min 9.
`CCOc1ccc(C(C)C)cc1S(=O)(=O)NCCn1ncccc1=O` gave NPYLR7 agonist 1 and NPYLR7 agonist max-min -1.
Screening CN1CCN(NC(=S)N=P(c2ccccc2)(N2CCOCC2)C(C)(C)C)CC1 (stereo not given) returned NPYLR7 agonist -7 and NPYLR7 agonist max-min -13.
`CCN(Cc1ccccc1Cl)C(=O)CCNC(=O)c1ccccc1F` gave NPYLR7 agonist 10 and NPYLR7 agonist max-min 10.
For COc1cccc(Cc2nsc(Oc3cc(C(=O)NCCCN4CCCCC4C)ccc3C)n2)c1 (stereo not given) the results were NPYLR7 agonist -6 and NPYLR7 agonist max-min -7.
For Cn1c(C(C#N)c2csc(N3CCCCC3)n2)nc2ccccc21 (stereo not given) the results were NPYLR7 agonist 0 and NPYLR7 agonist max-min 0.
Screening COc1ccc(-n2[nH]c3cc(=O)n(Cc4ccccc4)c(C)c3c2=O)cc1 returned NPYLR7 agonist -9 and NPYLR7 agonist max-min -12.
O=C(CCc1ccccc1)N(Cc1cccnc1)Cc1nccn1Cc1ccccc1C(F)(F)F was read as NPYLR7 agonist 16 and NPYLR7 agonist max-min 19.
Cc1cc(C(=O)O)ccc1-n1c(C)cc(C=C2SC(=O)N(C)C2=O)c1C was read as NPYLR7 agonist -2 and NPYLR7 agonist max-min -5.
For CC(=O)Oc1c(C)cc(CN(C)Cc2n[nH]c3c2CCC3)cc1C the results were NPYLR7 agonist -3 and NPYLR7 agonist max-min -6.
Screening COC(=O)C(C)n1cnc2c(nnn2-c2ccccc2)c1=O (stereo not given) returned NPYLR7 agonist 4 and NPYLR7 agonist max-min 3.
CCOC(=O)c1[nH]c2c(c1C)C(=O)CCC2 was read as NPYLR7 agonist 1 and NPYLR7 agonist max-min 10.
For C=CCNC(=O)N1CCN(C(C(=O)NCCc2ccccc2OC)C2CCCC2)CC1 (stereo not given) the results were NPYLR7 agonist -7 and NPYLR7 agonist max-min -2.
`Cc1cc(C(=O)CSc2nnc(-c3ccco3)o2)c(C)n1C(C)C` gave NPYLR7 agonist -1 and NPYLR7 agonist max-min -2.
Screening CC(C)c1ccc(NC2=NC3CS(=O)(=O)CC3S2)cc1 (stereo not given) returned NPYLR7 agonist 1 and NPYLR7 agonist max-min -1.
For COc1ccc(OC)c(CNC(=O)c2cnn(-c3ccc(C)c(Cl)c3)c2N)c1 the results were NPYLR7 agonist -1 and NPYLR7 agonist max-min 19.
`Cc1nnc2ccc(OCCNS(=O)(=O)c3ccc(C(F)(F)F)cc3)nn12` gave NPYLR7 agonist 3 and NPYLR7 agonist max-min 4.
